Sa ugtP lethal = kills S. aureus RN4220 lacking UgtP | S. aureus RN4220 ugtP deletion, OD600 growth, 16 h; some inactives read as strong as hits | growth inhibition, % (no concentration beside the values) | hit rate 0.54% among 330,000 | AID 1259309;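 active = z-score under -3 and OD600 up to 0.15 on both plates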;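 note: plate controls were untreated wells for no effect and antibiotic for full effect; wells of about 80 µL received 100 nL stock; the first replicate is given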
Mtb hypoxia inh = inhibitors of hypoxia-regulated fluorescent reporter in Mycobacterium tuberculosis; M. tuberculosis hypoxia-regulated fluorescent reporter, fluorescence; fluorescence inhibition, % (test concentration not listed); AID 1159583; hit rate 0.1% among 300,000;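 active = 35 to 45% if threefold the growth effect, above 45% if 1.5-fold the growth effect; inactive = the rest, general growth blockers included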;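 note: wells of about 50 µL received 100 nL stock; 0% = vehicle wells and 100% = reference inhibitor wells; whole bacteria with a GFP reporter of the hypoxia response; strong numbers were not always called active; many hits fall short of the cut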
PrP 5UTR inh = suppresses PrP 5' UTR mRNA reporter expression. cell-based PrP 5' UTR mRNA reporter, plate reader. inhibition, % (no concentration beside the values). hit rate 0.35% among 340,000;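 active = every replicate at 50% or more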;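 note: 0 = median of the neutral control wells; tested in H4 reporter cells; numbers are from one replicate; inactives centre near -14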
BJeLR lethal = kills HRASV12-expressing BJeLR cells; BJeLR (HRASV12) viability, CellTiter-Glo ATP luminescence, 48 h; reference of the scale not given here; hit rate 0.17% among 300,000; inhibition, % (test concentration not listed);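 active = replicate mean above 50%; inconclusive = above 50% but judged a plate artefact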;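 note: 50 nL library stock added to about 25 µL; numbers are from one replicate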
RN4220 kill = kills Staphylococcus aureus RN4220 | S. aureus RN4220 growth, OD600, 16 h | inhibition, % (no concentration beside the values) | hit rate 0.33% among 330,000;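 active = z-score of -3 or lower and OD600 up to 0.18 on both plates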;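 note: plate controls were untreated cells for no effect and reference antibiotic for full effect; stock transfer was 100 nL into about 80 µL; one replicate is shown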
Bead autofluor = compound fluorescence in toxin protease inhibitor counterscreen; fluorescence intensity (concentration not given with the values); compound autofluorescence counterscreen, microsphere flow cytometry; active compounds read high; hit rate 3.1% among 360,000; AID 624483;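 active = at least 3 SD above the mean of all compounds, about 16000 in these data; inconclusive = too few beads counted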;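 note: 100 nL of 1 mM stock went into each well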
Mtb hypoxia inh growth = recorded beside Mtb hypoxia inh, whose call it bears; growth inhibition, %; measured here: M. tuberculosis growth (absorbance);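 0% = vehicle and 100% = reference antibiotic; read after six days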
Starred values were filed as active, the others as inactive; ? = inconclusive; nt = no result given.

| SMILES | Sa ugtP lethal | Mtb hypoxia inh | Mtb hypoxia inh growth | PrP 5UTR inh | BJeLR lethal | RN4220 kill | Bead autofluor |
| --- | --- | --- | --- | --- | --- | --- | --- |
| O=C(N/N=C/c1ccco1)c1cc(-c2ccc(Br)s2)[nH]n1 | nt | nt | nt | -41 | -2 | nt | 5770 |
| C/C(=N\NC(=O)c1cccc(S(=O)(=O)N2CCOCC2)c1)c1cc2ccccc2o1 | nt | nt | nt | -44 | -6 | nt | 4480 |
| Cc1cc(C)nc(SCC(=O)Nc2ccc(N3CCOCC3)c(Cl)c2)n1 | -1 | nt | nt | -26 | nt | -2.8 | 4915 |
| O=C1CCN(C(=O)/C=C/c2ccccc2)c2ccccc21 | -5 | 8 | 4 | -13 | 1 | 9.7 | 4231 |
| COC(=O)c1ccc2c(=O)n(NC(=O)C(c3ccccc3)c3ccccc3)c(=S)[nH]c2c1 | 17 | 4 | 4 | 3 | 0 | -0.1 | 16293* |
| CCOC(=O)N1CCC(c2cc(=O)n3[nH]c(-c4ccccc4)cc3n2)CC1 | 1 | 9 | 9 | -4 | -2 | -0.2 | 6156 |
| O=C(NCCCN1CCCC1=O)c1ccc(CNS(=O)(=O)c2ccc(F)cc2)cc1 | 5 | -7 | 7 | -4 | 12 | 12 | 3007 |
| COc1cc(OC)cc(C(=O)NCc2cc(C)nc3ccccc23)c1 | 8 | -7 | 5 | -11 | 1 | 3.1 | 2198 |
| S=c1[nH]nc(-c2ccco2)n1N=Cc1cccc(Cl)c1 | 11 | 4 | 4 | nt | nt | 21 | nt |
| Cc1cc(C)n2ncnc2n1 | 11 | 14 | 4 | -18 | 1 | 5.3 | 11711 |
| N=C(CC1CC(=O)NC(=O)C1)C1=C(O)CCCC1=O | 1 | 5 | 4 | -11 | 6 | 7.2 | 6697 |
| Cc1cc(OC(=O)N(C)C)nc(-c2ccc(C)c(Cl)c2)n1 | 10 | 10 | 0 | -34 | 1 | 4.1 | nt |
| COc1ccc(Cn2c(O)c(C=Nc3c(C)n(C)n(-c4ccccc4)c3=O)c(=O)[nH]c2=O)cc1 | 1 | 4 | 0 | 4 | -7 | -1.7 | 2770 |
| NC(=S)NN=Cc1ccc(-c2cc(Cl)cc(Cl)c2)o1 | -12 | nt | nt | nt | nt | 5.3 | nt |
| COc1cccc(OCCNC(=O)c2ccccc2Sc2ccccc2C#N)c1 | 0 | 11 | 0 | -6 | 5 | -2.1 | 2648 |
| CCOC(=O)C1CCCN(C(=O)c2ccc3c(c2)OCO3)C1 (configuration not stated) | 3 | 5 | -1 | -22 | 2 | -2.1 | 6270 |
| CC(=O)C(Cc1cccc(F)c1)(Cc1cccc(F)c1)C(C)=O | -2 | 8 | 2 | -7 | -1 | 4.9 | 4207 |
| CC(/C=N/N1CCN(Cc2ccccc2)CC1)=C\c1ccccc1 | nt | nt | nt | -17 | 1 | nt | 4426 |
| Cc1cc(C)n(C(=O)CNC(=O)C(c2ccccc2)c2ccccc2)n1 | 5 | nt | nt | -25 | 3 | 1.0 | 4467 |
| CC1CC(C)CN(CCOc2ccccc2-c2ccccc2)C1 (configuration not stated) | 1 | 5 | 5 | -11 | 14 | -0.4 | 2441 |
| CC(=NNC(=O)c1ccc(C)cc1)c1c(C)[nH]n(-c2ccccc2)c1=O | 5 | 2 | -1 | nt | nt | 9.7 | nt |
| O=C(Cc1ccccc1)NCc1ccncc1 | nt | nt | nt | -10 | 5 | nt | 4031 |
| CCOC(=O)C1CC(c2ccccc2)=NNC1=O (configuration not stated) | 3 | 0 | -1 | -36 | 3 | 2.1 | 3996 |
| COc1ccccc1CCCNC(=O)C1CCC(=O)N(CCN2CCOCC2)C1 (configuration not stated) | 1 | 1 | 9 | -1 | -3 | 1.7 | 6916 |
| Cc1cccc(NC(=O)NCc2ccc3c(c2)cc(C)n3C)c1 | 3 | 10 | 7 | 2 | 8 | 2.9 | 1708 |
| CC(NC(=O)c1ccccc1Cl)c1ccc(-n2ccnc2)cc1 (configuration not stated) | -1 | 5 | 7 | -10 | -8 | 1.2 | 5187 |
| Cc1ccccc1OCC(=O)Nc1ccc2[nH]ncc2c1 | 15 | 6 | 17 | -17 | -11 | -1.5 | 3906 |
| O=C(COC(=O)c1ccc(Cl)nc1)NNC(=O)c1ccc(Br)cc1 | -2 | 1 | -1 | -29 | nt | 3.3 | 8500 |
| O=C(O)C1CCCCC1C(=O)NCCc1cccc(Cl)c1 (configuration not stated) | -14 | -5 | -2 | -11 | nt | -3.4 | 6659 |
| CCOC(=O)c1c(NC(=O)CSc2nc3ccccc3[nH]2)sc2c1CC(C)(C)NC2(C)C | -1 | 6 | 3 | -24 | -1 | 2.0 | 6254 |
| CC1=CC(C)C(C(=O)O)C(C(=O)O)C1 (configuration not stated) | -1 | 1 | -1 | -13 | -7 | 4.2 | 10361 |
| CC1=Nc2ccccc2/C1=C/c1c(N)n2c(S(=O)(=O)CC(C)C)nsc2nc1=O | 13 | -7 | -5 | -11 | -6 | 5.4 | 2531 |
| CC1(C)CC(NS(=O)(=O)c2ccccc2)CC(C)(C)N1 | 2 | 10 | 8 | -15 | 9 | -3.2 | 2087 |
| COC(=O)c1scc(S(C)(=O)=O)c1-n1cccc1 | 6 | -4 | -10 | nt | -12 | 3.8 | ? |
| Cc1noc(/C=C/N(C)C)c1S(=O)(=O)N(C)Cc1ccc(F)cc1 | 3 | -4 | -1 | -6 | 3 | 1.3 | 4909 |
| CC12CC3CC(C)(C1)CC(C(=O)NC1=NCCS1)(C3)C2 | -8 | -7 | 1 | -8 | 2 | 2.3 | 6178 |
| CN(C)S(=O)(=O)c1cccc(NC(=O)COC(=O)CNC(=O)c2ccccc2F)c1 | 4 | 13 | -1 | -11 | -19 | 0.6 | 5003 |
| COc1ccc(C(=O)Nc2ccc(S(=O)(=O)N3CCN(C)CC3)cc2)cc1[N+](=O)[O-] | -1 | -8 | -1 | -4 | -5 | 3.6 | 3514 |
| Cc1nn(-c2ccccc2)c(C)c1N | 10 | 14 | 9 | -29 | 2 | 6.3 | 4343 |
| COc1ccccc1CNC(=O)C1CCCN(S(=O)(=O)c2cnc[nH]2)C1 (configuration not stated) | 8 | nt | nt | -18 | nt | 4.9 | 6876 |

The results go on:
Each structure is followed by: Sa ugtP lethal | Mtb hypoxia inh | Mtb hypoxia inh growth | PrP 5UTR inh | BJeLR lethal | RN4220 kill | Bead autofluor
Cc1noc(C)c1S(=O)(=O)N(CC(=O)NCc1ccc(F)cc1)c1ccc(C(C)C)cc1
    -6 | -2 | 1 | -18 | 0 | -2.2 | 5666
CCCn1c(N)c(N(CCOC)C(=O)c2ccc(-c3ccccc3)cc2)c(=O)[nH]c1=O
    3 | 7 | 4 | nt | nt | 0.3 | nt
CC(C)CCN(C)C1CCN(S(=O)(=O)c2ccc(F)cc2)CC1
    11 | 5 | 6 | -8 | -1 | 3.6 | 5481
Cc1ccccc1NC(=O)CN1C(=O)S/C(=C\c2ccc(-c3cc(C(=O)O)ccc3C)o2)C1=O
    -4 | 6 | 7 | -5 | 6 | 8.1 | 3522
COc1cccc(CNC(=O)C2CCCN(c3cnccn3)C2)c1 (configuration not stated)
    -5 | -19 | -8 | -2 | 5 | 0.3 | 5931
Cn1c(C(=O)NCc2ccc3c(c2)OCO3)cc2sccc21
    3 | 4 | 0 | -3 | 6 | 4.6 | 17632*
Cn1nnnc1SCC(=O)Nc1cccc(S(=O)(=O)N2CCCC2)c1
    6 | 9 | 6 | -26 | 16 | 2.3 | 4595
Cc1ccc(C)c(CN2C(=O)CSc3ccc(C(=O)NCC(C)CN4CCC(C)CC4)cc32)c1 (configuration not stated)
    3 | 13 | 2 | -19 | -11 | -5.6 | 4386
CN(C)Cc1ccccc1Sc1ccccc1Br
    7 | 12 | 7 | -23 | -7 | 4.6 | 10923
NC(N)=NS(=O)(=O)c1ccc(NC(=S)Nc2ccc(F)cc2)cc1
    9 | 16 | -1 | -43 | 4 | 2.0 | 4205
O=C(CN1C(=O)C(=Cc2ccc(C(F)(F)F)cc2)Sc2ccccc21)NCc1ccco1
    6 | 9 | 6 | nt | nt | 2.5 | nt
CN(c1ccccc1)S(=O)(=O)c1cc(C(=O)OCC(=O)c2c(N)n(C)c(=O)n(C)c2=O)ccc1Cl
    -2 | 3 | -4 | -13 | nt | 5.0 | ?
C=CCN1C(=O)N(c2ccccc2)C(=O)C1CC(=O)Nc1ccc(OC)cc1 (configuration not stated)
    6 | -1 | 2 | -3 | 5 | 2.2 | 3214
COc1ccc(/C=C/c2c([N+](=O)[O-])c(=O)n(C)c(=O)n2C)c(OC)c1OC
    1 | 3 | 18 | -7 | -3 | 2.2 | 5112
COC(=O)C1C2C=CC3(CN(C4CCCC4)C(=O)C13)O2 (configuration not stated)
    8 | nt | nt | 0 | -5 | 10 | 2380
Cn1c(NCc2ccc(Cl)cc2)nc2ccccc21
    -7 | 8 | 16 | -61 | 7 | -1.6 | 4894
COc1cc2c(cc1OC)C(C)N(C(=O)c1nccnc1C(=O)O)CC2 (configuration not stated)
    2 | -15 | -1 | -8 | 2 | 1.9 | nt
CCOC(=O)C1=C(C)N2C(=C(C#N)[C@@H]1c1ccc(C(=O)OC)cc1)SC[C@@]2(O)C(C)(C)C
    3 | 6 | 17 | -5 | -6 | -0.2 | 9192
CCCCOc1cccc(C(=O)N(Cc2ccco2)C2CCS(=O)(=O)C2)c1 (configuration not stated)
    5 | 10 | 3 | -16 | 8 | 7.0 | 10757
O=C(COC(=O)c1ccc(S(=O)(=O)N2CCc3ccccc3C2)cc1)NC(=O)NCc1ccco1
    7 | 11 | 8 | -30 | 12 | 4.1 | 2705
CCN(CC)S(=O)(=O)c1ccc(OC)c(-n2cnnn2)c1
    0 | -3 | 13 | -1 | 1 | 2.7 | 4541
O=C(NCc1cccc(CNC(=O)c2ccco2)c1)c1ccco1
    10 | 6 | 5 | -8 | -8 | 3.0 | 8058
COc1ccc(-c2cc(C(F)F)nc(-n3nc(C)cc3C)n2)cc1
    -19 | 1 | 13 | -11 | -10 | 18 | 4534
CCOC(=O)c1cnn2c(C(F)(F)F)cc(-c3ccccc3)nc12
    5 | 1 | 6 | -20 | -6 | 8.3 | 8213
CC1CCCN(C(C(=O)Nc2ccc(C(C)C)cc2)c2ccc3c(c2)OCO3)C1 (configuration not stated)
    16 | 9 | 1 | -34 | -5 | -0.6 | 5441
Cc1ccc(C(=O)O/N=C/c2c(Cl)n(C)c3ccccc23)cc1
    nt | nt | nt | -9 | 2 | nt | 4966
CC(C)CNCC1OCc2ccccc2CO1
    5 | 13 | 0 | -30 | -7 | 0.1 | 4833
Cc1nn(-c2cc(N3CCOCC3)ccc2[N+](=O)[O-])c(=O)c2ccccc12
    -7 | 0 | 3 | -13 | 0 | -2.6 | 11239
CCCCN1C(=O)C(=Nc2cccc3cnccc23)c2ccccc21
    1 | -2 | 6 | -13 | 6 | 4.5 | 4705
COC(=O)c1ccc(Cn2nc(C(F)(F)F)cc2C)cc1
    4 | nt | nt | -31 | -2 | 1.6 | 4676
O=C(N/N=C/c1ccco1)c1cccc(N2CCCC2=O)c1
    nt | nt | nt | -34 | 7 | nt | 8756
CCC1(C)Cc2ccccc2-c2nc3n(c(=O)c21)CCCCC3 (configuration not stated)
    21 | 5 | 5 | -13 | -4 | 4.5 | 21213*
CC(=O)Nc1ccc(Nc2ccc([N+](=O)[O-])cn2)cc1
    2 | 2 | -4 | -18 | 6 | 2.0 | 4042
COc1cccc(-c2nc(CS(=O)(=O)CC(=O)Nc3cccc(C(C)=O)c3)c(C)o2)c1
    -6 | 9 | 10 | -24 | 4 | 1.4 | 6392
CCCN1CCN(CCCNC(=O)c2cc3c(=O)n(C)c4ccccc4c3n2C)CC1
    11 | nt | nt | -11 | 2 | 0.2 | 5631
C=CCNC(=S)NS(=O)(=O)c1cccs1
    5 | -4 | 1 | -16 | 7 | 3.2 | 4551
O=S1(=O)CCOCC(CC2CCCCC2)N1Cc1ccc(Cl)cc1 (configuration not stated)
    6 | 6 | 7 | nt | nt | 6.2 | nt
CN(CC1COc2ccccc2O1)C(=S)NC1CCCCC1 (configuration not stated)
    -10 | -4 | 14 | -25 | -1 | -4.2 | 4033
